From PubChem BioAssay
Vaccinia Venus: qHTS for Stage-Specific Inhibitors of Vaccinia Orthopoxvirus: Venus Reporter Primary qHTS | Vaccinia virus Venus reporter expression, fluorescence | Potency, µM (doses to about 36.5 µM), without a hit: top-dose activity change, negative = inhibition, hits mostly inhibitors | actives 0.46% (n = 330,000); active means well fitted inhibition curve with a large enough effect; inconclusive means small, poorly fitted or top-dose-only effect; inactive means no such curve, though single readings can be large or run the other way; tested in A549 cells; also: nearly all actives have a fitted effect of over 30% in size; inactives centre near -10
VACV mCherry inh: qHTS for Stage-Specific Inhibitors of Vaccinia Orthopoxvirus: mCherry Reporter Primary qHTS; Vaccinia virus mCherry reporter infection, fluorescence; about a quarter of the inactives have no number; Potency, µM (doses to about 36.5 µM), for the others: at the highest dose activity change, negative = inhibition, usual class: inhibitors; actives 0.63% (n = 310,000); active = well fitted inhibition curve with a large enough effect; inconclusive = small, poorly fitted or top-dose-only effect; inactive = no such curve, though single readings can be large or run the other way; tested in A549 cells; also: nearly all actives have a fitted effect of over 35% in size; inactives centre near -10
Active calls of the source: *; i = inactive; ? = inconclusive; · = not tested or not shown; [ ] = remark or other dose. % is scaled to controls: 0 for no effect and ±100 for the full control effect; potency is read from the fitted curve at half-maximal effect.

SMILES	Vaccinia Venus	VACV mCherry inh
CC(=O)c1c(C)[nH]c(C(=O)COC(=O)c2ccc3c(=O)n4c(nc3c2)CCC4)c1C	-10%	-1%
O=S1(=O)CSCS(=O)(=O)C1	-1%	-15%
COc1cc(NC(=O)c2cc([N+](=O)[O-])ccc2Br)ccc1NC(=O)c1ccco1	-19%	?
CCNc1cc(S(=O)(=O)C(F)(F)F)ccc1N	-15%	-9%
Cc1ccc(S(=O)(=O)Oc2cccc([N+](=O)[O-])c2)cc1	-7%	?
CC1(C)C=Cc2c(ccc3c2OC[C@@H](c2ccc(O)cc2O)C3)O1	-20%	-16%
CCOc1cc(/C=C2/C(=O)ON=C2C)ccc1OCc1ccc(F)cc1	-14%	-8%
CCC(=O)N1CCc2cc(S(=O)(=O)CCC(=O)N3CCN(c4cccc(Cl)c4)CC3)ccc21	-9%	-14%
COc1cc(C(=O)NNC(=O)CN2C(=O)NC3(CCCC3)C2=O)cc(OC)c1OC	1%	-16%
CN(CCC#N)C(=O)c1ccc(CNS(=O)(=O)c2ccc(F)cc2)cc1	-5%	·
Cn1c(N)c(C(=O)COC(=O)CCc2ccccc2)c(=O)n(C)c1=O	7%	-2%
O=C(NCC1CCCO1)c1ccccc1OCc1ccc(F)cc1 (centres undefined)	-19%	i
COc1ccc(S(=O)(=O)NC(C)C(=O)NCc2ccco2)cc1OC (centres undefined)	14%	0%
COc1ccc(C(F)(F)F)cc1NC(=O)c1sc2nc(-c3cccs3)ccc2c1N	?	-6%
Cc1cc(C)cc(S(=O)(=O)N2CCN(c3nc(-c4cccs4)nc4ccccc34)CC2)c1	-18%	i
CCN(CC)C(=O)Cn1c(=O)n(Cc2ccc(C(=O)NCCc3ccc(OC)c(OC)c3)cc2)c(=O)c2ccccc21	-11%	-2%
C/C(=N\NC(=O)c1nc2ccccn2c1C)c1cc2ccccc2o1	-17%	-9%
CCOC(=O)C1=C(CS(=O)(=O)c2ccc(F)c(C)c2)NC(=O)NC1c1ccccc1OC (centres undefined)	0%	-5%
CS(=O)(=O)N(CCc1ccccc1)CC(=O)NCC1CCCO1 (centres undefined)	0%	i
O=C1C=CC(=O)N1Cc1ccccc1	-25%	-9%
O=C(CSc1ccc2nnc(-c3ccncc3)n2n1)NCc1ccco1	-11%	i
Cc1ccc(NC(=O)COC(=O)C2CC(=O)N(Cc3ccccc3)C2)cc1S(=O)(=O)N(C)C (centres undefined)	-3%	-11%
COc1cc(C(=O)NCC(=O)OCC(=O)Nc2nnc(-c3ccccc3)o2)cc(OC)c1OC	-10%	-2%
O=C(CCC(=O)N1CCN(c2cccc(Cl)c2)CC1)c1cccs1	0%	-23%
Cc1ccc(OCCCCN2CCC(C)CC2)c(Br)c1	-15%	i

Reprinted at random: 4 compounds from above.
SMILES	Vaccinia Venus	VACV mCherry inh
C/C(=N\NC(=O)c1nc2ccccn2c1C)c1cc2ccccc2o1	-17%	-9%
COc1ccc(C(F)(F)F)cc1NC(=O)c1sc2nc(-c3cccs3)ccc2c1N	?	-6%
Cc1ccc(OCCCCN2CCC(C)CC2)c(Br)c1	-15%	i
O=C1C=CC(=O)N1Cc1ccccc1	-25%	-9%

Remaining list, next part:
SMILES	Vaccinia Venus	VACV mCherry inh
CCN1CCOC(=O)C1CC(=O)Nc1cc(C)cc(C)c1 (centres undefined)	-6%	4%
O=C(c1ccc(NS(=O)(=O)c2ccc(F)cc2)cc1)N1CCC1	-8%	-14%
O=C(OCc1cc(=O)n2c3c(sc2n1)CCCC3)c1cccc(NC(=O)c2ccccc2F)c1	-26%	-5%
CCC(C)NC(=O)c1ccc(CS(=O)(=O)c2ccc(OC)cc2)o1 (centres undefined)	1%	-14%
O=C(NCc1cccnc1)c1nc(-c2ccccc2)n(-c2ccccc2)n1	-10%	-18%
O=C(O)c1ccc2c(c1)C(=O)N(c1ccc(Cl)cn1)C2=O	5%	-8%
COc1cc(C)nc(Oc2ccc(/C=N/O)cc2)n1	-18%	·
Cn1ccnc1SCC(=O)NC1CCCC1	-2%	-4%
Cc1ccc(SCCC(=O)OC(C)C(=O)Nc2ccccc2)cc1 (centres undefined)	-14%	i
COC(=O)c1[nH]c2ccc(F)cc2c1NS(=O)(=O)c1ccc(F)c(C)c1	-11%	-19%
CCSC1(SCC)N=C(N)C2(C#N)C(c3ccc(OC)c(OC)c3OC)C12C#N (centres undefined)	-10%	·
CC1(C(=O)NS(=O)(=O)Cc2ccccc2)CCN1C(=O)Cc1cc(F)ccc1F (centres undefined)	5%	i
CN1OC[C@@H]2CN[C@H](c3ccc(Br)cc3)C[C@@H]21	-3%	-13%
CC(C)C(=O)NNS(=O)(=O)c1ccccc1[N+](=O)[O-]	-8%	-14%
CCOc1ccccc1NC(=O)C1CCN(S(=O)(=O)c2ccc(OC)c(OC)c2)CC1	0%	i
O=C(NCC1CCCO1)c1ccc2c(c1)C(=O)N(c1cccc([N+](=O)[O-])c1)C2=O (centres undefined)	-5%	-13%
CN(C)/C=N/C(=S)Nc1ccc(Br)cc1F	-13%	·
CCCOC(=O)C1C2CCC(O2)C1C(=O)O (centres undefined)	-10%	-22%
CCN(CC)C(=O)Cn1cc(S(=O)(=O)CC(=O)NCCc2ccccc2)c2ccccc21	-16%	i
CCOc1ccccc1/C=N/NC(=O)c1cccc(S(=O)(=O)N(CC)CC)c1	-14%	?
COc1cc(/C=N/N=C(/C(=O)c2ccccc2)c2ccccc2)cc(OC)c1O	-18%	-29%
Cc1cc(C(=O)COc2ccccc2C#N)c(C)n1C1CC1	0%	?
COc1ccccc1CN(C)C(=O)CNC(=O)c1cccc(Cl)c1	-9%	i
Cc1cc2ccccn2c1C(=O)Nc1ccc(Cl)cc1	-20%	-20%
O=C(NNC(=O)c1cccs1)c1ccc(Cl)nc1	-9%	i
Next section:
SMILES	Vaccinia Venus	VACV mCherry inh
Cc1ccc(C(=O)O/N=C(\N)c2ccccc2)c(Cl)c1	-3%	-13%
CCCN1C(=O)c2[nH]nc(-c3ccccc3O)c2C1c1cccc(OCc2ccccc2)c1 (centres undefined)	?	?
COCCCNC(=O)c1ccc2c3c(onc13)-c1ccccc1C2=O	90%[activator]	10%
Cc1ccc(S(=O)(=O)NCCN2CCOCC2)cc1	-3%	-16%
O=C(c1cc2ccccc2c(=O)o1)N1CCc2ccccc2C1	-5%	-12%
CC12CCC(C(=O)Nc3ccccc3)(C(Br)C1=O)C2(C)C (centres undefined)	-23%	-1%
Cc1ccc(C(=O)Nc2cccc(C(F)(F)F)c2)cc1NC(=O)c1nccnc1N	?	-14%
CCC(CO)Oc1cc(NC(=O)c2ccccc2N)c2ncn(C(C)C)c2c1 (centres undefined)	-15%	-23%
Cc1ccc(NC(=O)CCNC(=O)c2ccc(Cl)cc2)cc1F	-10%	i
O=C(c1ccc(Cl)c(S(=O)(=O)N2CCCC2)c1)N1CCCCC1	-12%	i
CC1(C(=O)O)CCCN1C(=O)c1cccc2ccccc12 (centres undefined)	0%	6%
CCC(C)(C)NC(=O)c1cc(OC)c(OC)cc1[N+](=O)[O-]	7%	·
O=C(CSc1nc2c(c(=O)n1-c1ccc(Cl)cc1)SCC2)N1CCOCC1	-10%	i
Cc1cc(C)cc(-n2c(SCC(=O)Nc3ccc4c(c3)OCCO4)nc3c([nH]c4ccccc43)c2=O)c1	-3%	1%
Cc1cc(C)c(C(=O)OCC(=O)NC(=O)c2ccccc2)c(C)c1	-24%	-14%
Cc1nnc(NC(=O)CSc2ccc(-c3ccco3)nn2)s1	0%	i
O=C(CN1C(=O)/C(=C\c2ccccc2F)SC1=S)Nc1nc2ccccc2s1	11%	-12%
COc1ccc(OC)c(NC(=O)c2ccc(-c3nc(CSc4ccccc4)c(C)o3)cc2)c1	-2%	-14%
CC(=O)NC1(c2ccccc2)CCN(CC(=O)N2CCC(C)CC2)CC1	-6%	-17%
COc1ccc(SC[C@H](CC(C)C)N2CCN(CCc3ccccc3)CCC2=O)cc1	-18%	?
O=C(Nc1ccc2c(c1)OCO2)c1c[nH]c(=O)n(-c2ccc(F)cc2)c1=O	-9%	-14%
CC1(C)CC(=O)C=C(Nc2ccc(F)cc2)C1	-1%	0%
COc1ccc(NC(=O)C2CCN(S(=O)(=O)c3ccc4c(c3)CCCC(=O)N4)CC2)cc1Cl	?	-27%
CCC(c1nc2ccccc2[nH]1)n1c(-c2cccnc2)nc2ccccc21 (centres undefined)	-1%	-8%
CCn1c(CSCc2ccc(C)cc2)nnc1SCC(=O)N1CCN(c2ccccc2)CC1	?	?

In the list so far, these have a COOH group:
SMILES	Vaccinia Venus	VACV mCherry inh
O=C(O)c1ccc2c(c1)C(=O)N(c1ccc(Cl)cn1)C2=O	5%	-8%
CCCOC(=O)C1C2CCC(O2)C1C(=O)O (centres undefined)	-10%	-22%
CC1(C(=O)O)CCCN1C(=O)c1cccc2ccccc12 (centres undefined)	0%	6%

The list continues:
SMILES	Vaccinia Venus	VACV mCherry inh
CN(C)C=NCCn1c(N2CCOCC2)nc2c1c(=O)n(C)c(=O)n2C	-29%	·
CC(CN1CCCCC1)OC(=O)CCc1ccccc1 (centres undefined)	-11%	i
NC(=O)C1CCN(C(=O)c2ccc(-c3ccccc3)cc2)CC1	-16%	·
CCN(CC)CCN(Cc1cc2ccc(C)cc2[nH]c1=O)C(=S)Nc1ccccc1C(=O)OC	?	?
COc1ccc(CCNC(=O)C(C)OC(=O)c2nsc(Cl)c2Cl)cc1OC (centres undefined)	-9%	-12%
N/C(=N\OC(=O)Cc1ccc(-c2ccccc2)cc1)c1ccncc1	-15%	i
CCOc1ccccc1C(=O)OCC(=O)Nc1nnc(-c2ccccc2)o1	-7%	i
O=C1CC2(CCCCC2)Oc2ccccc21	-19%	-27%
CCCS(=O)(=O)c1nc(S(=O)(=O)c2ccc(C)cc2)c(N(CC)CC)s1	-11%	-15%
CCc1cccc(NC(=O)c2sc3nc[nH]c(=O)c3c2C)c1	-15%	-26%
CCOc1cccc(-c2c(C(=O)N/N=C/c3ccncc3)nnn2-c2nonc2N)c1	-23%	-3%
O=S(=O)(Nc1ccccn1)c1cccc(S(=O)(=O)c2ccc(Cl)cc2)c1	-5%	-6%
CCn1c2ccccc2c2nnc(SCC(=O)NCCOC)nc21	-10%	-11%
CCN(C(=N)N=C(N)N)c1ccccc1	-5%	i
CC1CCC(NC(=O)c2ccc(NS(=O)(=O)c3ccc4[nH]c(=O)[nH]c4c3)cc2)CC1 (centres undefined)	-19%	-23%
CCN(CC)S(=O)(=O)c1ccc(Oc2cccc(C(C)=O)c2)nc1	-5%	-4%
O=C(CSc1nc2ccccc2[nH]1)NC1CCCC1	-11%	-8%
C=CCC[C@@H](Cc1ccc(F)cc1)C(=O)OC[C@@H](Cc1c[nH]c2ccccc12)NC(=O)[C@@H](CC=C)CC(=O)NCCO	-28%	i
CCN1CCN(c2nc3ccccc3nc2C(C#N)S(=O)(=O)c2ccc(C)cc2)CC1 (centres undefined)	?	?
CCNc1c(NC(=O)c2ccccc2OCC)c(=O)oc2ccccc12	0%	-4%
Cc1ccc2nc(-c3ccc(SCC(=O)N4CCc5ccccc54)nc3)[nH]c2c1	-17%	?
S=C(NCc1ccccc1)N1CCn2cccc2C1c1ccncc1 (centres undefined)	-9%	-23%
COc1ccccc1/C=N/NC(=O)c1ccc(CN2C(=O)c3cccc4cccc2c34)cc1	-3%	-21%
COc1ccc(/C=C(\NC(=O)c2cccs2)C(=O)NCc2ccco2)cc1OC	-9%	i
Cc1ccc(S(=O)(=O)NCC(=O)OCN2C(=O)c3ccccc3C2=O)cc1	-6%	-12%
(next part)
SMILES	Vaccinia Venus	VACV mCherry inh
Cc1c(-c2cccc(NC(=O)c3ccc(F)c(F)c3)c2)nc2ncccn12	-12%	-16%
NS(=O)(=O)c1ccc(CCNCc2ccccc2OCc2ccc(Cl)cc2)cc1	-14%	-12%
CC[N+]1(CC(=O)c2ccc(Cl)cc2)CCCCC1	-18%	i
CCOc1cc2[nH]c(=O)n(Cc3ccc(C(=O)NCCOC)cc3)c(=O)c2cc1OCC	-18%	i
COC(=O)c1cc(C(=O)NCCCN2CCOCC2)cc([N+](=O)[O-])c1	-8%	i
CCO[C@H]1OC(C(=O)N2CCN(Cc3ccc4c(c3)OCO4)CC2)=C[C@@H](C2CCCCC2)[C@@H]1CCCO	?	i
O=C1N[C@@H](Cc2cn(S(=O)(=O)c3ccc([N+](=O)[O-])cc3)c3ccccc23)C(=O)N[C@H]1Cc1ccccc1	?	-43%
COc1cc(OC)cc(-c2nc(-c3cc4cc(C)ccc4nc3OC)no2)c1	-19%	-5%
Cc1cc(C)c2c(N=NN(C)C)[nH]nc2n1	-7%	-9%
COc1ccc(SCc2noc(C(=O)NC(C)C)c2C(=O)O)cc1	-3%	i
CC(=O)Oc1ccc(C(C)=O)c2c1OCCO2	-5%	i
Cc1ccc(C)c(NC(=O)CSc2cccc3cccnc23)c1	-7%	-12%
CSc1nc2sccc2c(=O)[nH]1	-11%	i
COc1ccc(NC(=O)CC23CC4CC(CC(C4)C2)C3)cn1	-9%	-15%
COc1cc(NC(=O)COC(=O)CCc2cc(OC)c(OC)c(OC)c2)cc(OC)c1	6%	i
COc1c(C)cc(C(=O)C2CCCN(C(=O)c3ccoc3)C2)cc1C (centres undefined)	-3%	i

3 of the compounds above, as labelled records.
Compound: O=C(CSc1ccc2nnc(-c3ccncc3)n2n1)NCc1ccco1
- Vaccinia Venus: -11%
- VACV mCherry inh: i

Compound: Cc1ccc(NC(=O)COC(=O)C2CC(=O)N(Cc3ccccc3)C2)cc1S(=O)(=O)N(C)C (centres undefined)
- Vaccinia Venus: -3%
- VACV mCherry inh: -11%

Compound: COc1cc(C(=O)NCC(=O)OCC(=O)Nc2nnc(-c3ccccc3)o2)cc(OC)c1OC
- Vaccinia Venus: -10%
- VACV mCherry inh: -2%
